Bioassay records deposited in PubChem BioAssay by several laboratories.
LANA-H2A inh: blocks KSHV LANA binding to histone H2A/H2B; 320,000 tested, 0.6% active; AID 2629; inhibition, % (test concentration not listed); cell-free LANA-H2A/H2B peptide, fluorescence polarization; in the data active means inhibition mostly above about 10%, no sharp cut-off; inactive means mostly below about 6.7%;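 further: stock transfer was 7.5 nL into about 10 µL; 0% = median of vehicle wells and 100% = median of positive control wells; one replicate is shown; the record names a cut of 25% in any replicate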
ALR H2O2 inh: blocks human ALR sulfhydryl oxidase activity | P55789 | purified ALR, DTT oxidation, H2O2 HRP-luminol luminescence | inhibition, % (no concentration beside the values) | 290,000 tested, 3.8% active | AID 485317;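 active means mean and each replicate at 75% or more; inconclusive means only one of the two met; inactive means neither met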;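 further: stock transfer was 7.5 nL into about 7.5 µL; 0% = neutral wells and 100% = wells with inactivated enzyme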
Target sequence (P55789 whole entry, looked up): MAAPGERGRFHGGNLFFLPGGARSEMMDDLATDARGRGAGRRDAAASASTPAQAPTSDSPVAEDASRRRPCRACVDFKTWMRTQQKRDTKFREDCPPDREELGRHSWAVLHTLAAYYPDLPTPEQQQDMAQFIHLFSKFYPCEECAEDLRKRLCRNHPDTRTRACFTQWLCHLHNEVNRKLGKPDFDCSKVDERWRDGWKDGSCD
HNF4A DNA FP: change in binding of human HNF4 alpha to DNA; AID 1224865; 360,000 tested, 0.3% active; P41235; HNF4a-FITC DNA binding, fluorescence polarization, 1 h; activity change, % at 10 µM; in the data active means activity change above about 30%, passing the limit was not always enough;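 further: controls were the assay level and a saturating level of protein; the project sought stronger binding though the title names inhibitors; some compounds called inactive have numbers as strong as hits; positive values seem to mean higher polarization but the record does not say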
Target sequence (P41235 whole entry, looked up): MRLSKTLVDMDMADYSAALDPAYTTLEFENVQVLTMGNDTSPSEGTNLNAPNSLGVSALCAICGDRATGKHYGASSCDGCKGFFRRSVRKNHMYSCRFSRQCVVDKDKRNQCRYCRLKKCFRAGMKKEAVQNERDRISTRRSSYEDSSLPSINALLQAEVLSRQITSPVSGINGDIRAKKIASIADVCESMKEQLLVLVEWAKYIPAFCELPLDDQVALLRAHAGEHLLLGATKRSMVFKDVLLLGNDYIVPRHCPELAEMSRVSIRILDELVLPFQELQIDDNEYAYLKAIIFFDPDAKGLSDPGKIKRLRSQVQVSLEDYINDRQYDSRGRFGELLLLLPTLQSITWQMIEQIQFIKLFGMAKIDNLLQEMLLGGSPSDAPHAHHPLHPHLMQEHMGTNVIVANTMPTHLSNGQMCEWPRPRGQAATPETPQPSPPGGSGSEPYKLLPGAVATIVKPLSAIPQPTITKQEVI
RanGTP-Impb inh: disruptors of Ran-importin-beta complex formation – biochemical, FRET, CFP-Ran, YFP-importin-beta, homogeneous, primary screen; cell-free CFP-Ran/YFP-importin-beta FRET ratio; inhibition, % (no concentration beside the values); 300,000 tested, 1.1% active;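 active means most replicates above 15%; inconclusive means exactly half above 15%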;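 further: 0% = DMSO wells and 100% = Ran loaded with GDP instead of GTP; wells of about 40 µL received 100 nL stock; the first replicate is given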
Beta2AR agonist: human beta-2 adrenergic receptor agonism by FAP. P07550. 340,000 tested, 0.43% active. Am2.2-beta2AR cells, FAP receptor internalization, flow cytometry; reference of the scale not given here. AID 504454. response, % (no concentration beside the values);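 active means response above a set limit, near 3 SD of response in nonfluorescent compounds, cut at about 42% in these data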;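 further: stock transfer was 100 nL into about 11 µL; a reference agonist was the positive control; negative values mostly stem from fluorescent compounds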
Vif TR-FRET: HIV-1 Vif–A3G interaction blockers – biochemical, TR-FRET, GST-Vif 1-94, biotin-A3G peptide, dose response retest, primary screen (AID 1117319); TR-FRET GST-Vif / biotin-A3G peptide binding; higher % means a stronger effect; test concentration not given here; strong numbers were not always called active; one-dose inhibition, %; IC50 in µM for titrated hits; 260,000 tested, 0.57% active;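 active means above the screen mean plus three standard deviations and confirmed in dose response; inconclusive means results disagree or hit not tested in dose response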;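 further: Vif residues 1-94 fused to GST binding biotinylated APOBEC3G peptide 110-148; 0% = full assay without inhibitor and 100% = GST in place of GST-Vif; retest series ran down from 100 µM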
Calb FLC: C. albicans growth modulation with fluconazole. 300,000 tested, 0.57% active. AID 1979. growth inhibition, % (concentration not given with the values). C. albicans CaCi-2 (fluconazole-resistant clinical isolate) + fluconazole, Alamar Blue growth, 48 h;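 active means most replicates above 75%; inconclusive means exactly half above 75%; inactive means most below 75%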;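 further: all wells also contain fluconazole at 8 µg/ml as a sub-toxic cotreatment; 0% = median of DMSO wells and 100% = median of geldanamycin control wells; wells of about 8 µL received 7.5 nL stock; the first replicate is given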
Starred values were filed as active, the others as inactive; i = inactive; ? = inconclusive; nt = no result given; + = active, no number.

Compound,ALR H2O2 inh,RanGTP-Impb inh,LANA-H2A inh,Vif TR-FRET,HNF4A DNA FP,Calb FLC,Beta2AR agonist
COc1cc(CN(C(=O)c2ccco2)C2CCS(=O)(=O)C2)cc(OC)c1OC (configuration not stated),3,0.0,nt,1%,0.0,8,1
Cc1ccc(-n2nnnc2SC(C)C(=O)Nc2ccccc2-c2ccccc2)cc1 (configuration not stated),-3,2.5,1.3,nt,-1.3,-2,7
Cc1cc(NC(=O)Cc2ccccc2)ccc1NC(=O)c1cccs1,-9,nt,-1.2,-5%,nt,-18,-2
Cc1c(C(=O)NCCC2=CCCCC2)sc2ncnc(N3CCCCC3C)c12 (configuration not stated),-8,1.5,-1.7,nt,-2.2,-1,-11
CCN(CC(=O)Nc1c(F)cccc1F)C(=O)Cc1cccs1,nt,nt,nt,-5%,5.1,nt,10
COc1cc2c(cc1OC)C(C)N(C(=O)Nc1ccc(F)cc1)CC2 (configuration not stated),nt,5.8,-3.8,-3%,3.4,-2,-4
CC(=O)NCCc1ccc(S(=O)(=O)NCc2ccc3c(c2)OCO3)cc1,-3,-6.4,-8.4,26%,-1.7,10,-4
N#Cc1cccc2cnccc12,-3,5.9,-3.9,4%,2.3,0,2
O=C(N/N=C/c1sc(N2CCOCC2)nc1-c1ccccc1)c1cccc(S(=O)(=O)N2CCOCC2)c1,-6,-2.0,-6.2,-1%,25,98*,20
O=C(CC1C(=O)NCCN1C(=O)Nc1ccccc1)Nc1ccc2c(c1)OCCO2 (configuration not stated),-8,?,-0.5,17%,4.4,24,-1
Cc1ccc(N(C(=O)CCl)C(C(=O)NC2CCCCC2)c2cccnc2)cc1C (configuration not stated),-1,2.5,i,nt,nt,?,nt
Cc1ccc(CN2C(=O)C3CCCN3c3ccc(C#N)cc32)cc1 (configuration not stated),-9,2.7,-3.5,0%,nt,12,nt
CCN(CC)S(=O)(=O)c1ccc(N2CCCC2)c(NC(=O)c2ccccc2OC)c1,20,-0.4,-0.4,13%,-1.7,-5,-3
O=C(CSc1nnc(NC(=O)c2ccccc2F)s1)NC1CCCC1,-8,-1.2,0.3,nt,-0.8,4,7
NC1(C#Cc2ccc3c(=O)c4ccccc4sc3c2)CCCCC1,-1,nt,-0.2,nt,13,nt,2
CCOP(=O)(OCC)C(NC(=O)Nc1ccc(C)c(Cl)c1)c1ccccc1 (configuration not stated),-16,2.2,-7.1,2%,2.9,-16,-4
Nc1ccc2c(c1)C(=O)c1ccc(Br)cc1-2,nt,nt,nt,0%,0.9,nt,1
O=C(NCCN1CCOCC1)c1ccccc1N1C(=O)[C@@H]2Cc3c([nH]c4ccccc34)C(c3ccc(F)cc3)N2C1=O (some centres not stated),nt,0.5,4.0,nt,-12,-1,0
CCN(CC)S(=O)(=O)c1ccc(N2CCOCC2)c(NC(=O)C(C)Oc2ccc(F)cc2)c1 (configuration not stated),nt,nt,-3.0,1%,1.3,nt,5
Cn1nccc1C(=O)N1CCN(c2cccc(Cl)c2)CC1,9,nt,4.4,0%,-1.7,nt,0
CCOC(=O)c1sc(N)nc1C(C)(C)C,-18,5.5,0.3,22%,1.4,-30,-16
N#CCC(CNc1ncc(C(F)(F)F)cc1Cl)OC(=O)c1ccc(Cl)cc1Cl (configuration not stated),-5,0.0,-5.0,-6%,-5.9,-1,3
Cn1nc(C(=O)NNC(=O)C2CSC3(C)CCC(=O)N23)c2ccccc2c1=O (configuration not stated),-1,-2.3,-3.9,5%,0.8,5,-5
CCC1(CC)Cc2ccccc2C(Nc2c(C)n(C)n(-c3ccccc3)c2=O)=N1,6,0.7,2.8,2%,0.6,-30,3
N#Cc1cccc(NC(=O)CNc2cccc(S(=O)(=O)N3CCCCC3)c2)c1,-7,0.0,2.1,-5%,-1.4,2,1
O=C(Nc1ccc(Cl)c(Cl)c1)Nc1ccon1,-7,?,4.6,4%,-1.6,71,-9
c1ccc2nc(N3CCN(Cc4ccc5c(c4)OCO5)CC3)cnc2c1,-2,1.6,1.9,1%,0.3,-33,-7
NS(=O)(=O)c1cc(C(=O)OCC(=O)c2ccccc2)c(Cl)cc1Cl,3,5.2,-1.4,-2%,5.0,-15,-1
COc1ccc(C(=O)NCc2ccc(C)cc2)cc1S(=O)(=O)N1CCCC1,-2,nt,-5.7,1%,-0.3,nt,0
O=C(O)C1CCN(Cc2ccccn2)CC1,-1,3.6,-3.7,-1%,0.6,8,-8
Cc1c(Cl)cccc1NC(=O)CC(NCCN1CCOCC1)C(=O)O (configuration not stated),nt,3.8,-4.2,nt,0.4,8,3
CC(c1ccccc1)N1C(=O)c2ccc(C(=O)NCc3ccco3)cc2C1=O (configuration not stated),nt,1.4,nt,13%,3.7,2,4
COc1ccc(C)cc1NC(=O)C(=O)NCc1ccncc1,-5,-2.6,2.5,6%,-2.0,32,2
O=C(COC(=O)c1cc(S(=O)(=O)N2CCCC2)ccc1O)Nc1ccc(F)cc1F,-6,nt,-2.6,nt,0.3,nt,12
CN(C)c1ccc(C(=O)N(Cc2ccccc2)Cc2ccccc2)cc1,0,-1.2,4.3,nt,-0.9,9,36
COc1ccccc1N1CC(C(=O)Nc2nnc(SCC(=O)NC(C)C)s2)CC1=O (configuration not stated),-2,4.5,1.0,nt,0.9,-1,0
COc1ccc(CN(N=O)C2CC(=O)N(c3ccc(OC)cc3)C2=O)cc1 (configuration not stated),5,-0.7,1.9,13%,2.7,7,-2
CC(=O)Nc1ccc(S(=O)(=O)Nc2nc3ccccc3nc2Nc2ccc(O)cc2)cc1,nt,2.8,1.7,-3%,-0.1,16,-19
NS(=O)(=O)c1ccc(NC(=O)N[C@@H](Cc2ccccc2)C(=O)O)cc1,nt,-1.6,nt,-3%,-0.8,1,-2
CC(C)CCSc1nc2[nH]ncc2c(=O)[nH]1,8,0.6,2.1,-4%,2.5,2,11
C=C(C)COc1ccc2c(C)c(CC(=O)N3C[C@H]4C[C@@H](C3)c3cccc(=O)n3C4)c(=O)oc2c1,-2,3.3,5.2,nt,5.1,-3,-9
NC(=O)c1ccccc1NS(=O)(=O)Cc1ccc(Cl)cc1,2,2.3,-1.8,-5%,2.8,5,-5
O=C(NCCS(=O)(=O)N1CCN(c2ccc(F)cc2)CC1)C12CC3CC(CC(C3)C1)C2,-9,-4.1,-4.5,-2%,-2.8,2,24
C/C(=N\NC(=O)c1cccc([N+](=O)[O-])c1)c1cccs1,-6,0.5,3.1,-4%,-5.0,-4,1
CCOC(=O)N1CCc2c(sc(NC(=O)CCS(=O)(=O)c3ccccc3)c2C(N)=O)C1,-13,-2.8,-8.5,9%,0.7,20,1
CS(=O)(=O)N(CC(=O)Nc1ccc(F)cc1)C1CCCCC1,5,3.0,6.0,nt,-1.7,22,-5
COc1cc(OC)cc(C(=O)N[C@H](C(=O)NCCc2ccc(S(N)(=O)=O)cc2)C(C)C)c1,-2,3.1,1.5,nt,5.8,12,-4
NS(=O)(=O)c1ccc(CCNC(=O)Cc2ccccc2[N+](=O)[O-])cc1,nt,-1.6,nt,nt,2.4,9,-1
CC1CCN(S(=O)(=O)c2ccc(NC(=O)Cc3ccc(S(=O)(=O)N4CCOCC4)s3)cc2)CC1,-6,3.0,+,nt,2.3,-8,-1
CC(C)COc1ccc(C(=O)Nc2ccccc2[N+](=O)[O-])cc1,-10,0.7,-1.8,-7%,-15,38,-1
Nc1nc(-c2ccc(Cl)cc2)c(S(=O)(=O)c2ccccc2)s1,-15,3.6,8.9,-15%,-0.7,36,2
Cc1ccccc1C(=O)Nc1ccnn1C1CCN(Cc2ccc(CO)o2)CC1,-4,-9.5,6.9,nt,-2.4,3,-2
COc1ccc(/C=C/c2c([N+](=O)[O-])c(=O)n(C)c(=O)n2C)cc1OC,-14,-0.8,4.0,0%,0.2,-1,10
CC(C)(C)c1ccc(C2C(C#N)=C(N)Oc3n[nH]c(-c4cccnc4)c32)cc1 (configuration not stated),0,4.8,-2.4,14%,-0.4,5,0
CC(=O)NC1=NN(C(C)=O)C(C)(CC(=O)OC(C)(C)C)S1 (configuration not stated),-2,1.9,3.0,-7%,1.1,-11,-4
COc1ccc(CNCc2cccc(OC)c2OC)cc1Br,-6,?,-4.8,7%,3.2,-28,-4
CC1=C(C(=O)OCC(C)C)C(c2ccsc2)NC(=O)N1 (configuration not stated),-5,-1.1,0.4,9%,2.8,9,0
O=C(Nc1ccncc1)c1ccc(Cl)c(S(=O)(=O)N2CCCC2)c1,-6,2.7,7.5,-3%,-3.1,-3,0
COC(=O)c1ccccc1NC(=O)c1cc(-c2ccc(C)cc2)on1,-2,2.6,3.9,7%,-0.9,-2,2
COc1ccc(S(=O)(=O)N2CCN(C(=O)NC3CCCCC3)CC2)cc1OC,nt,8.9,-16,28%,0.6,1,-1

Next structures follow:
Compound,ALR H2O2 inh,RanGTP-Impb inh,LANA-H2A inh,Vif TR-FRET,HNF4A DNA FP,Calb FLC,Beta2AR agonist
CC(=O)Nc1ccc(/C=N/NC(=O)CNS(=O)(=O)c2ccccc2)cc1,6,1.5,-6.9,3%,0.5,-2,-5
O=C(/C=C/c1ccccc1)N/C(=C/c1ccccc1)C(=O)Nc1ccccc1O,2,-14,-0.9,-4%,2.0,?,9
CC(=O)C1=C(O)C(=O)N(Cc2ccco2)C1c1ccccc1F (configuration not stated),15,?,-0.2,-2%,3.0,-27,-1
CN=c1scc(C)n1/N=C/c1ccc(O)cc1,99*,nt,-1.7,3%,1.4,-4,4
CCc1ccc(-c2cc(C(=O)NCc3ccco3)c3ccccc3n2)s1,53,5.2,-2.4,26%,16,14,-5
CCOc1ccc(CN(C)C(=O)c2cccnc2SC)cc1OC,nt,5.5,5.9,16%,1.2,5,5
CCOC(=O)c1c(C)oc2c1c1c(c3ccccc32)OCN(Cc2ccccn2)C1,-1,-0.9,-0.2,6%,3.6,18,-8
CCCOc1ccc(-c2c(C(=O)N/N=C/c3ccc(OCC)cc3)nnn2-c2nonc2N)cc1,-15,-1.2,1.3,nt,0.4,30,-3

An unsorted share of the library. Share with any hit: about 6.3%.
